HSV augment = enhancers of HSV replication in host cells, fold increase, host cell viability | HSV replication augmentation in cells | maximum fold increase | hit rate 0.005% among 220,000 | AID 1956, 2009;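 active means peak rise of 1.5-fold or more in the series; inconclusive means self-fluorescent or not available for retest; tested in PC3 cells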;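 further: first round at 10 µM; read as green reporter fluorescence; hits show the peak of a series up to 25 µM; 1 = signal of infected wells without compound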
RGS16-Gao = modulators of RGS16 binding to Galphao, primary screen, biochemical, human proteins, multiplexed bead flow cytometry; Regulator of G-protein signaling 16 (Homo sapiens) + Guanine nucleotide-binding protein …; bead-based flow cytometry RGS16-Galphao binding, fluorescence; actives lie on both sides; binding response (% of control), % at 10 µM; hit rate 0.38% among 220,000; AID 1441, 2008;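 active means below 25% or above 175%, edge rows of some plates excepted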;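 further: Galphao activated by GDP with aluminum fluoride before binding; 100% = wells without compound and 0% = beads without RGS; some results beyond the cut were filed as inactive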
Target sequence (O15492 whole entry, looked up): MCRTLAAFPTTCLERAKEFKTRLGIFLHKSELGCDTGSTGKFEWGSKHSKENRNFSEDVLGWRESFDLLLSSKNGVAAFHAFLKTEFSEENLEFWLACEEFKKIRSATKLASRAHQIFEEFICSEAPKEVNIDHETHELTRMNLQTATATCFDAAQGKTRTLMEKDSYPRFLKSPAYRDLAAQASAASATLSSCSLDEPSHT
Target sequence (P09471 whole entry, looked up): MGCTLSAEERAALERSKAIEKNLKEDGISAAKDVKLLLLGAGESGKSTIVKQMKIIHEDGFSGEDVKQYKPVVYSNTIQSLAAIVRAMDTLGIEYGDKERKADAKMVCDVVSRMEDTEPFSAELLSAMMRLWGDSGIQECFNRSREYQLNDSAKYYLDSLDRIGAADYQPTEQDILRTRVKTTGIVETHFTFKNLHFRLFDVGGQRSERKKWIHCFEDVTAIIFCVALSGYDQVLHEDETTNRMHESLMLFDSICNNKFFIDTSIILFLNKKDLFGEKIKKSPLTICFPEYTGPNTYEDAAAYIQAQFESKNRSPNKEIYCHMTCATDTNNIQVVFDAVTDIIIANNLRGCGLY
GALR2 agonist = GALR2 receptor agonists, primary screen, cell-based; GALR2-expressing cells, agonist activation read-out; activation, %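 (tested at 5 µM)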; hit rate 0.48% among 140,000; AID 803, 2007;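 active means above mean plus 3 SD of all compounds, about 5% in these data, not always enough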;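 further: 0% = vehicle buffer wells and 100% = reference agonist at full effect; tested in CHO reporter cells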
Target sequence (O43603 whole entry, looked up): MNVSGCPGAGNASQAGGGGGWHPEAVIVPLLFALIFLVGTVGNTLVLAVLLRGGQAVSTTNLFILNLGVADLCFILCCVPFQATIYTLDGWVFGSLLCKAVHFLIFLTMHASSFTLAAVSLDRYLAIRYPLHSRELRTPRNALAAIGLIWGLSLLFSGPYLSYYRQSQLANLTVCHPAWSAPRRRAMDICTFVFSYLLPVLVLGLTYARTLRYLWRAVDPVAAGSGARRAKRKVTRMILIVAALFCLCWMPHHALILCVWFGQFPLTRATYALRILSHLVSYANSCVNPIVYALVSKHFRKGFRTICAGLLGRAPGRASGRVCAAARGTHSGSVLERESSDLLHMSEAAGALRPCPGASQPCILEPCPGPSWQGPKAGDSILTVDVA
PKD1 inh = inhibitors of human PKD1 kinase, biochemical, fluorescence polarization; hit rate 0.056% among 200,000; AID 797, 2007; Serine/threonine-protein kinase D1 (Homo sapiens), Q15139; inhibition, %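 (about 10 µM by stock and volumes)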; PKD1 kinase fluorescence polarization assay;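 active means inhibition of 50% or more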;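 further: controls were vehicle for no effect and a reference inhibitor for full effect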
INS promoter inh = inhibitors of insulin promoter-driven GFP, primary screen, imaging, TRM-6 cells (human fetal islet line), eGFP reporter, cell count; hit rate 0.9% among 130,000; reporter expression induced with tamoxifen; inhibition, % at 2 µM;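 active means inhibition above the mean plus 3 SD, with well images judged a real hit on visual review, cut at about 60% in these data, passing the limit was not always enough; inconclusive means inhibition over the cutoff but images rejected on review; inactive means inhibition not above the cutoff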
INS promoter inh cell count = also measured in INS promoter inh; calls as there; normalized cell count, %; measured here: cell count, toxicity; reference of the scale not given here;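 cells exposed to compound for 48 h; stained nuclei by imaging scaled within each plate; lower means fewer cells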
HSV augment primary fold = further read-out of HSV augment, marked with its call; fold increase; compound at 10 µM; measured here: primary screen fold increase 10 uM; tested in PC3 cells;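 GFP signal in the first replicate; 1 = infected wells without compound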
The depositor's hits bear a star; i = inactive; ? = inconclusive; nt = no result given; & = joins results of further samples. An unsorted share of the library; overall some 1.3% were active at least once.

The line under a structure holds: HSV augment	HSV augment primary fold	RGS16-Gao	GALR2 agonist	PKD1 inh	INS promoter inh	INS promoter inh cell count
CC(C)CC(NC(=O)c1cccs1)c1nnc(SCc2ccc(Cl)c(Cl)c2)n1C (configuration not stated)
→ i	0.85	117	-1.3	-8	nt	nt
O=C(COc1ccc2ccccc2c1)NCCn1ccc2ccccc21
→ i	0.98	105	-2.2	3	nt	nt
CCOC(=O)c1c(C)c(/C=N/Nc2ccccc2)n(C)c1C
→ i	1.2	99	nt	3	35	85
COC(=O)c1c(C)nn(-c2ccccc2)c1N
→ nt	nt	54	-0.7	-8	-110	49
Cc1c(Cc2ccccc2)c(=O)oc2c(CN(C)C)c(O)c(Cl)cc12
→ i	1	99	8.3*	4	0	92
COc1ccc(NC(=O)CC2CC3CCC2C3)cn1 (configuration not stated)
→ i	1.1	102	nt	-3	0	109
CS(=O)(=O)c1ccc2nc(NC(=O)CCC(=O)c3cccs3)sc2c1
→ i	1	98	0.0	-5	14	60
COC(=O)c1ccc(CN2CCCC(CCC(=O)NCc3ccc(C)o3)C2)cc1 (configuration not stated)
→ i	0.94	106	nt	-2	nt	nt
COc1cc2[nH]c(=O)n(CCC(=O)NC3CCCC3)c(=O)c2cc1OC
→ i	0.75	103	-0.8	-8	-22	129
COc1ccc(-c2nnnn2C)cc1S(=O)(=O)NCc1ccccc1
→ i	0.89	103	-2.6	-10	-157	99
CC(=O)NC1(c2ccccc2)CCN(Cc2nnnn2C(C)(C)C)CC1
→ i	0.96	110	-0.6	-2	-11	89
COc1ccc(-n2c(SCC(=O)Nc3sc4c(c3C#N)CCCC4)nnc2-c2ccccc2OC)cc1
→ ?	nt	108	-1.0	-8	-60	106
CC(/C=N/NC(=O)c1cccc([N+](=O)[O-])c1)=C\c1ccccc1
→ i	0.83	101	-0.6	-3	3	71
Cc1ccc(C(=O)C(OC(=O)CCC(=O)Nc2cccc(C)c2)c2ccccc2)cc1 (configuration not stated)
→ i	1	99	-1.6	18	-13	125
COc1ccc(CNc2oc(-c3ccccc3)nc2C#N)cc1
→ i	1.1	97	-0.2	-2	-29	129
Cc1ccc(/C=C2\SC(=S)N(C(Cc3ccccc3)C(=O)O)C2=O)cc1 (configuration not stated)
→ i	1	103	-0.3	-9	27	135
Nc1nnc(SCC(=O)OCC(=O)c2ccccc2Br)s1
→ i	0.94	102	nt	-7	-82	46
Cc1ccc(SC(C)C(=O)Nc2cccnc2)cc1 (configuration not stated)
→ i	1	107	-1.5	-6	11	67
COc1cc(NC(=O)c2cccc(COCC(F)(F)C(F)F)c2)cc(OC)c1OC
→ i	0.97	97	-0.8	-5	nt	nt
Cc1ccnc2nc(C(=O)Nc3ccc4c(c3)OCO4)nn12
→ i	1	104	0.6	-10	22	96
O=C(NCCN1CCOCC1)c1cc2cc([N+](=O)[O-])ccc2s1
→ i	0.97	100	nt	-2	nt	nt
CCOc1cc(/C=N/NC(=O)CN2CCOCC2)ccc1OCc1ccccc1
→ i	1	133	0.1	-9	nt	nt
CCCCCn1c(=O)[nH]c2cc(C(=O)NCc3ccco3)ccc2c1=O
→ i	0.84	100	-2.9	-9	50	209
Cc1onc(-c2ccccc2)c1C(=O)Nc1ccc(S(=O)(=O)Nc2nccs2)cc1
→ i	0.96	104	nt	nt	nt	nt
CCOC(=O)N1CCN(S(=O)(=O)c2ccc(OCC(=O)OC)cc2)CC1
→ i	1.2	100	-1.5	-1	-12	123
Cn1c(=O)c2c(nc(CN3CCN(c4ccc(F)cc4)CC3)n2Cc2ccccc2F)n(C)c1=O
→ i	0.52	97	-2.0	-5	nt	nt
COC(=O)C(NC(=O)C(C)NC(=O)OCc1ccccc1)C(C)C (configuration not stated)
→ i	0.95	97	nt	nt	nt	nt
Cc1onc(-c2c(Cl)cccc2Cl)c1C(=O)N=C(N)N1CCOCC1
→ i	1	98	nt	nt	nt	nt
COc1ccccc1CNC(=O)c1cn(C)c2ccc(S(=O)(=O)N3CCCCC3)cc2c1=O
→ i	1	104	nt	-11	nt	nt
Cc1nnc(SCC(=O)N(C)c2c(N)n(Cc3ccccc3)c(=O)[nH]c2=O)n1Cc1ccccc1
→ i	1	98	nt	4	nt	nt

Given in CSV form: entries from further up
smiles,HSV augment,HSV augment primary fold,RGS16-Gao,GALR2 agonist,PKD1 inh,INS promoter inh,INS promoter inh cell count
COc1ccc(CNc2oc(-c3ccccc3)nc2C#N)cc1,i,1.1,97,-0.2,-2,-29,129
Cc1ccc(/C=C2\SC(=S)N(C(Cc3ccccc3)C(=O)O)C2=O)cc1 (configuration not stated),i,1,103,-0.3,-9,27,135
Nc1nnc(SCC(=O)OCC(=O)c2ccccc2Br)s1,i,0.94,102,nt,-7,-82,46
Cc1ccc(SC(C)C(=O)Nc2cccnc2)cc1 (configuration not stated),i,1,107,-1.5,-6,11,67
COc1cc(NC(=O)c2cccc(COCC(F)(F)C(F)F)c2)cc(OC)c1OC,i,0.97,97,-0.8,-5,nt,nt
Cc1ccnc2nc(C(=O)Nc3ccc4c(c3)OCO4)nn12,i,1,104,0.6,-10,22,96
O=C(NCCN1CCOCC1)c1cc2cc([N+](=O)[O-])ccc2s1,i,0.97,100,nt,-2,nt,nt
CCOc1cc(/C=N/NC(=O)CN2CCOCC2)ccc1OCc1ccccc1,i,1,133,0.1,-9,nt,nt
CCCCCn1c(=O)[nH]c2cc(C(=O)NCc3ccco3)ccc2c1=O,i,0.84,100,-2.9,-9,50,209
Cc1onc(-c2ccccc2)c1C(=O)Nc1ccc(S(=O)(=O)Nc2nccs2)cc1,i,0.96,104,nt,nt,nt,nt
CCOC(=O)N1CCN(S(=O)(=O)c2ccc(OCC(=O)OC)cc2)CC1,i,1.2,100,-1.5,-1,-12,123
Cn1c(=O)c2c(nc(CN3CCN(c4ccc(F)cc4)CC3)n2Cc2ccccc2F)n(C)c1=O,i,0.52,97,-2.0,-5,nt,nt
COC(=O)C(NC(=O)C(C)NC(=O)OCc1ccccc1)C(C)C (configuration not stated),i,0.95,97,nt,nt,nt,nt
Cc1onc(-c2c(Cl)cccc2Cl)c1C(=O)N=C(N)N1CCOCC1,i,1,98,nt,nt,nt,nt

(cont.)
The line under a structure holds: HSV augment	HSV augment primary fold	RGS16-Gao	GALR2 agonist	PKD1 inh	INS promoter inh	INS promoter inh cell count
NC(=O)C1=C[C@@H](c2ccc(Br)cc2)C[C@@H](OCCCCO)O1
→ i	0.94	108	nt	-3	nt	nt
N#CCC(=O)N/N=C/c1cccc(Oc2ccccc2)c1
→ i	1	100	nt	7	-11	123
O=C(O)CCC(=O)N1CCN(c2ncccc2C(F)(F)F)CC1
→ i	1	102	nt	nt	nt	nt
Nc1ccc(SC(F)(F)F)cc1C(=O)c1ccccc1
→ nt	nt	103	0.7	-9	-17	49
COc1ccccc1NC(=O)Nc1nnc(C(C)C)s1
→ i	1.1	104	-0.7	-13	nt	nt
CCSc1ncnc2c1sc1nc3c(cc12)COC(C)(C)C3
→ i	0.98	84	-0.6	-3	-7	118
COc1ccccc1NC(=O)COc1cc(C)nc(C(C)C)n1
→ i	0.97	104	-3.2	-5	30	139
CCOC(=O)C1(Cc2ccc(OC)cc2)CCN(C(=O)CCn2ccc(C)n2)CC1
→ i	1.2	100	nt	1	nt	nt
COc1ccc(C(=O)ON=C2CCN(c3ccc([N+](=O)[O-])cc3)CC2)cc1
→ i	0.96	95	-1.1	-3	nt	nt
COCCOc1cc(NC(=O)c2sccc2Oc2ccc([N+](=O)[O-])cc2F)c(Cl)cc1Cl
→ i	0.92	95	-2.0	-2	-43	93
CCOC(=O)C1CCCN(C(=O)C2c3ccccc3Oc3ccccc32)C1 (configuration not stated)
→ i	0.79	102	-1.4	-2	nt	nt
O=C(N/N=C/C1CC=CCC1)c1cc(-c2cccnc2)nc2ccccc12 (configuration not stated)
→ i	0.8	103	nt	1	-36	105
Cc1ccc(S(=O)(=O)N2CCN(C(=O)CN3CCOCC3)C2c2ccccc2)cc1 (configuration not stated)
→ i	0.92	97	-1.7	-12	nt	nt
Cc1nnc(SCC(=O)Nc2ccccc2)n1CCc1ccccc1
→ i	0.97	99	1.2	-3	nt	nt
COc1ccc(-c2cc(=O)oc3c(C)c(OCc4nn[nH]n4)ccc23)cc1
→ i	0.65	105	-1.2	4	nt	nt

A few values from the results shown:
RGS16-Gao with O=C(O)CCC(=O)N1CCN(c2ncccc2C(F)(F)F)CC1 : 102
HSV augment primary fold with N#CCC(=O)N/N=C/c1cccc(Oc2ccccc2)c1 : 1

The list continues.
The line under a structure holds: HSV augment	HSV augment primary fold	RGS16-Gao	GALR2 agonist	PKD1 inh	INS promoter inh	INS promoter inh cell count
O=C(Nc1ccc(N2CCCC2)cc1)C(c1ccccc1)c1ccccc1
→ ?	nt	101	-3.6	7	-29	127
Fc1ccc(-c2nnn(Cc3nc4ccccc4s3)n2)cc1
→ i	1	102	-1.9	-6	-79	102
CCn1c(C)c(C(C)=O)c(N2CCN(c3cccc(Cl)c3)CC2)nc1=S
→ ?	nt	99	-1.8	-2	-28	165
Cc1nc(OCC(C)C)c2sc3nc4c(cc3c2n1)COC(C)(C)C4
→ i	1.1	95	nt	nt	nt	nt
COc1ccc(-n2c(SCC(=O)Nc3cc(C)on3)nc3c([nH]c4ccccc43)c2=O)cc1
→ nt	nt	99	nt	-3	nt	nt
COC(=O)C1=COC(C)C2CN3CCc4c([nH]c5cc(OC)c(OC)cc45)C3CC12 (configuration not stated)
→ ?	nt	98	nt	nt	nt	nt
Cc1ccc(CN2CCC(c3nc4ccc(Cl)cc4[nH]3)CC2)cc1
→ i	0.55	125	-1.3	-10	0	84
O=C(NCCCn1ccnc1)c1ccc(Cl)c(S(=O)(=O)N2CCOCC2)c1
→ i	0.82	101	-1.0	-3	0	112
COc1ccc(OC)c(S(=O)(=O)N2CCC(C(=O)Nc3cccc(C(F)(F)F)c3)CC2)c1
→ i	1	113	-1.3	-6	20	94
CCSc1nnc(-c2ccccc2N)c(=O)[nH]1
→ i	1.1	103	-1.1	0	33	89
O=C(O)CC1SC(=Nc2ccccc2)N(c2ccccc2)C1=O (configuration not stated)
→ i	0.99	100	-1.2	-3	-4	108
O=C(c1cccc(S(=O)(=O)N2CCCC2)c1)N1CCN(c2ccccc2)CC1
→ i	0.9	103	-2.3	-7	-45	67
Cc1cc(F)ccc1S(=O)(=O)Nc1c(C)n(C)n(-c2ccccc2)c1=O
→ i	0.96	98	-4.7	0	nt	nt
CCOC(=O)Nc1ccc2c(c1)N(C(=O)OCCN(C)C)c1ccccc1CC2
→ i	1.1&1.3	58&88	-0.9	-6&1	nt	nt
COc1ccccc1CNC(=O)C1CCCN(S(=O)(=O)c2cccc3cccnc23)C1 (configuration not stated)
→ i	0.9	103	-2.4	-4	nt	nt
Cc1cc(SC(C)C(=O)O)nc2ccccc12 (configuration not stated)
→ i	1	103	nt	-5	43	137
O=C(Nc1ccc(Cl)c(-c2nc3ccccc3[nH]2)c1)c1cccnc1
→ i	0.93	93	-0.3	6	21	68
S=c1[nH]nc(Cc2ccc(Cl)cc2)o1
→ i	0.74	102	nt	nt	nt	nt
CCOc1ccc(N(CC(=O)OC)S(=O)(=O)c2ccc3c(c2)n(C)c(=O)c(=O)n3C)cc1
→ i	0.97	80	-1.2	-6	nt	nt
